UCH37 inh – inhibitors of human deubiquitinating enzyme UCH37; purified proteasome/UCH37, Ub-AMC cleavage fluorescence; Q9Y5K5; inhibition, % (concentration not given with the values); 330,000 tested, 0.33% active;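 active = mean of two replicates above 20%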;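 note: 0% = compound-free wells with enzyme and 100% = wells lacking proteasome; stock transfer was 100 nL into about 20 µL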
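Test system – human UCH37 enzyme supplied as purified proteasome complex · Incubation – 30 min preincubation with enzyme, 25 min cleavage at room temperature · Detection – AMC fluorescence from Ub-AMC cleavage, excitation 355 nm, emission 460 nm · Benchmarks – no-proteasome wells (full inhibition) and compound-free wells (no inhibition)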
FGF22 binding – binders of recombinant human FGF22 by thermal shift; Q9HCT0; calls only at 9.99 µM; SYPRO orange fluorescence; percent of sucrose octasulfate shift, DMSO zero; 340,000 tested, 1.5% active; AID 651658;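 active = melting point raised past a set limit in the mean and every replicate; three in four hits are not shown here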
Target sequence (Q9HCT0 whole entry, looked up): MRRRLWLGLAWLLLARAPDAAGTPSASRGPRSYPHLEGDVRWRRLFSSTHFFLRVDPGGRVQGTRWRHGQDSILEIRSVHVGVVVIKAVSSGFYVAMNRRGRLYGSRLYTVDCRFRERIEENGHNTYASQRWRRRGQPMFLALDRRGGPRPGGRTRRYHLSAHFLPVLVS
Ecoli rRNA inh – inhibitors of bacterial rRNA selective over humanized ribosomes; AID 720706; 350,000 tested, 1.6% active; GFP signal change (wild-type ribosome), % (no concentration beside the values); E. coli WT GFP vs humanized-ribosome RFP mutants, fluorescence, 24 h; active compounds read low; DMSO median 0, no signal -100;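 active = significant combined selectivity score with lowered wild-type GFP, culture density cut under 30%, mutant RFP and density less affected; inactive = any of these conditions unmet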; note: one replicate is shown; some compounds called inactive have numbers as strong as hits
ALR H2O2 inh – human ALR oxidase inhibition via reduced H2O2; purified ALR, DTT oxidation, H2O2 HRP-luminol luminescence; inhibition, % (concentration not given with the values); 290,000 tested, 3.8% active;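 active = mean and each replicate at 75% or more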;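 note: stock transfer was 7.5 nL into about 7.5 µL; 0% = neutral wells and 100% = wells with inactivated enzyme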
Target sequence (P55789 whole entry, looked up): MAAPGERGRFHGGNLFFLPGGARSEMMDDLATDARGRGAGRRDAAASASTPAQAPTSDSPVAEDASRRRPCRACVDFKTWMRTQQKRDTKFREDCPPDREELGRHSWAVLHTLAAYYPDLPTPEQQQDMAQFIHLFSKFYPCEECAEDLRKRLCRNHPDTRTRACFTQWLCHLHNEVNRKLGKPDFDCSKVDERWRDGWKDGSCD
HNF4A DNA FP – change in binding of human HNF4 alpha to DNA; HNF4a-FITC DNA binding, fluorescence polarization, 1 h; activity change, % at 10 µM; P41235; AID 1224865; 360,000 tested, 0.3% active; in the data active = activity change above about 30%, passing the limit was not always enough;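 note: controls were the assay level and a saturating level of protein; the project sought stronger binding though the title names inhibitors; some compounds called inactive have numbers as strong as hits; positive values seem to mean higher polarization but the record does not say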
Target sequence (P41235 whole entry, looked up): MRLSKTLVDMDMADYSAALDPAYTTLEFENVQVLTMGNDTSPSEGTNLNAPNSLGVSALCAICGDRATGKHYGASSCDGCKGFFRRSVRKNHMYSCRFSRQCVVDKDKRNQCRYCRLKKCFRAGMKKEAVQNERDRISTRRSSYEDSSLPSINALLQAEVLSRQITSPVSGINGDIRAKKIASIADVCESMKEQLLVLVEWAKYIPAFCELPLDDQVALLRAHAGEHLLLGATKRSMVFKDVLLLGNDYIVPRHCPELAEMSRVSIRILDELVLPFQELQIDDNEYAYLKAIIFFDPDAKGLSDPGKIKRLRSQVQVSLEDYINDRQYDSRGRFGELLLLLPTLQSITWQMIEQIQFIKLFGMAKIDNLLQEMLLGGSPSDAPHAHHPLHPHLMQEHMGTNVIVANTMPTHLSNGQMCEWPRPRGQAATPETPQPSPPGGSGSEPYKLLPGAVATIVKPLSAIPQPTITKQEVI
Beta2AR agonist – activates human beta-2 adrenergic receptor causing internalization | P07550 | 340,000 tested, 0.43% active | Am2.2-beta2AR cells, FAP receptor internalization, flow cytometry; reference of the scale not given here | AID 504454 | response, % (no concentration beside the values);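 active = response above a set limit, near 3 SD of response in nonfluorescent compounds, cut at about 42% in these data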;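 note: stock transfer was 100 nL into about 11 µL; a reference agonist was the positive control; negative values mostly stem from fluorescent compounds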
Ecoli growth – blocks Escherichia coli growth; OD600, 23 h; active compounds read low; OD600 absorbance (test concentration not listed); 330,000 tested, 0.21% active; AID 1053175;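 active = OD600 absorbance below the run mean of sample wells minus 3.6 SD, in any replicate, cut at about 0.56 in these data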;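 note: stock transfer was 300 nL into about 60 µL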
Ecoli rRNA inh OD600 – further read-out of Ecoli rRNA inh, marked with its call; OD600 change, %; measured here: OD600 growth;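 optical density of the mix in the first replicate; 0 = DMSO median and -100 = no signal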
Ecoli rRNA inh RFP – second read-out of Ecoli rRNA inh, no call of its own (marks repeat the call); RFP signal change, %; measured here: RFP humanized mutant strains;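 first replicate; 0 = DMSO median and -100 = no signal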
* hit, by the source's call; i = inactive; nt = not tested or not shown.

cpd	UCH37 inh	FGF22 binding	Ecoli rRNA inh	Ecoli rRNA inh OD600	Ecoli rRNA inh RFP	ALR H2O2 inh	HNF4A DNA FP	Beta2AR agonist	Ecoli growth	canonical_smiles
1	4.5	i	17	2	-0.1	3	-1.5	-7	0.68	O=C(N1CCCCC1)N1CCN(S(=O)(=O)c2ccccc2)CC1
2	-23	i	1	-4	-0.4	nt	2.4	5	0.58	CCOc1ccc(-n2ccnc(SCC(=O)Nc3cccc(OC)c3)c2=O)cc1
3	nt	i	17	21	3.7	5	3.1	-8	nt	Cc1cc(C)n2c(nc3ccccc32)c1C(=O)NCc1ccccc1
4	0.5	i	20	13	3.7	nt	-0.8	26	0.72	CSc1nc(N)nc2c1ncn2CC(=O)N[C@H](CO)Cc1c[nH]c2ccccc12
5	2.7	i	2	3	-1.7	3	-2.6	-5	0.73	Cc1cc(C)cc(N(CCC#N)C(=O)COC(=O)C2=COCCO2)c1
6	-2.6	nt	nt	nt	nt	9	-1.8	-7	0.74	Cc1cc(N2CCOCC2)nc(SCC(=O)c2ccc(Cl)cc2)n1
7	4.7	nt	nt	nt	nt	-19	1.3	-6	0.75	CC(NS(=O)(=O)c1ccccc1)C1COc2ccccc2O1 (stereo unspecified)
8	-3.8	nt	nt	nt	nt	13	-18	6	0.76	O=C(c1ccco1)N1CCN(c2nc3ccccc3n3nnnc23)CC1
9	-1.3	nt	nt	nt	nt	nt	-1.9	4	0.71	COCCN(Cc1cc2ccccc2[nH]c1=O)C(=O)c1ccccc1OC
10	nt	i	1	1	0.0	56	-1.0	3	nt	COc1cccc(/C=N/n2c(-c3n[nH]c4c3CCC4)n[nH]c2=S)c1OC
11	nt	i	5	12	4.7	nt	0.1	nt	nt	CC(=O)Nc1cc(-c2cccc(C(=O)NCCN(C)C)c2)cn2c(-c3ccccc3)cnc12
12	-1.1	i	-6	-8	-3.3	-3	-5.3	-3	nt	C[C@H](NC(=O)c1ncn(C)c1C(=O)N[C@@H](C)c1ccccc1)c1ccccc1
13	6.1	i	6	8	2.0	-2	-1.9	-1	0.7	Cc1cc(OCC(=O)NCc2cccnc2)ccc1[N+](=O)[O-]
14	0.8	i	nt	nt	nt	42	3.6	1	0.65	O=C(COC(=O)/C=C/c1cccc([N+](=O)[O-])c1)Nc1ccc(Cl)cn1
15	12	i	-2	-3	2.7	-4	0.3	70*	0.74	COc1ccc(-c2nn(-c3ccccc3)cc2C(=O)N2c3ccc(C)cc3C3CN(C)CCC32)cc1 (stereo unspecified)
16	-73	i	1	-6	3.9	-2	6.5	-5	0.71	CCCc1cc(=O)oc2cc(C)c3c(C)coc3c12
17	-8.0	nt	nt	nt	nt	-5	7.9	18	0.73	COc1ccccc1C(=O)Nc1nc(-c2ccc(S(=O)(=O)N3CCOCC3)cc2)cs1
18	-1.2	nt	nt	nt	nt	-9	-2.5	-15	0.7	CCCNS(=O)(=O)c1ccc(CCC(=O)N2CCN(c3ccc(F)cc3)CC2)cc1
19	-0.5	i	21	15	2.4	nt	-3.9	6	0.66	O=C(CCN1CCC2CCC(C2)C1)c1ccccc1 (stereo unspecified)
20	4.0	i	-2	-13	9.1	36	2.6	3	0.7	COc1cc(/C=C(\C#N)C(=O)NCc2ccccc2)ccc1OCc1ccc(C(=O)O)cc1
21	2.4	i	18	10	28	-11	-3.6	-6	0.73	Cc1cc2ccccc2n1CCNC(=O)c1ccc(S(=O)(=O)N2CCOCC2)cc1
22	8.0	i	12	12	-4.2	40	0.6	-3	0.71	CC(=O)c1ccc(Nc2c(C)n(C)n(-c3ccccc3)c2=O)cc1
23	1.8	nt	nt	nt	nt	1	2.5	11	0.69	COCCn1c(SCC(=O)Nc2cccc(C(=O)OC)c2)nc2ccccc2c1=O
24	2.8	i	-34*	-28*	-3.4*	-5	0.5	20	0.69	COc1ccc(Cl)cc1NC(=O)CNc1ccccc1CN(C)C1CCCCC1
25	-69	nt	nt	nt	nt	3	3.0	-4	0.66	O=C(Nc1ccc2c(c1)C(=O)N(C1CCCCC1)C2=O)C1CCCO1 (stereo unspecified)
26	2.4	i	-7	-3	0.9	nt	3.9	4	0.67	CN(C)C(CNS(=O)(=O)c1ccc2ccccc2c1)c1ccccc1 (stereo unspecified)
27	0.1	i	11	13	0.5	-4	19	-1	0.7	Cc1ccc(C(=O)OCC(=O)NC(C)c2ccccc2)s1 (stereo unspecified)
28	3.2	i	7	16	-0.6	-3	1.0	-4	0.66	COCc1nnc(NC(=O)C2CC(=O)N(C3CCCC3)C2)s1 (stereo unspecified)
29	-0.2	nt	nt	nt	nt	90*	-0.4	7	0.75	Cc1cc(Br)cc(C)c1NC(=S)NC(=O)CC(C)C
30	-1.5	i	1	0	-5.7	nt	6.3	-2	0.6	Cc1cccc(CN2CCN(C(C)C(=O)NC(C)c3ccccc3)CC2)c1 (stereo unspecified)

ALR H2O2 inh: hit marks shown above.
cpd	UCH37 inh	FGF22 binding	Ecoli rRNA inh	Ecoli rRNA inh OD600	Ecoli rRNA inh RFP	ALR H2O2 inh	HNF4A DNA FP	Beta2AR agonist	Ecoli growth	canonical_smiles
29	-0.2	nt	nt	nt	nt	90*	-0.4	7	0.75	Cc1cc(Br)cc(C)c1NC(=S)NC(=O)CC(C)C

Complete entries as entered above. Values in the order: UCH37 inh | FGF22 binding | Ecoli rRNA inh | Ecoli rRNA inh OD600 | Ecoli rRNA inh RFP | ALR H2O2 inh | HNF4A DNA FP | Beta2AR agonist | Ecoli growth
`CC(=O)Nc1cc(-c2cccc(C(=O)NCCN(C)C)c2)cn2c(-c3ccccc3)cnc12` as listed: nt | i | 5 | 12 | 4.7 | nt | 0.1 | nt | nt
`Cc1cc(C)n2c(nc3ccccc32)c1C(=O)NCc1ccccc1` as listed: nt | i | 17 | 21 | 3.7 | 5 | 3.1 | -8 | nt
`Cc1cc(N2CCOCC2)nc(SCC(=O)c2ccc(Cl)cc2)n1` as listed: -2.6 | nt | nt | nt | nt | 9 | -1.8 | -7 | 0.74
`Cc1cc(C)cc(N(CCC#N)C(=O)COC(=O)C2=COCCO2)c1` as listed: 2.7 | i | 2 | 3 | -1.7 | 3 | -2.6 | -5 | 0.73

Ordered by the number under HNF4A DNA FP (low to high): 3 from the list above.
no.	molecule	HNF4A DNA FP
4	CSc1nc(N)nc2c1ncn2CC(=O)N[C@H](CO)Cc1c[nH]c2ccccc12	-0.8
17	COc1ccccc1C(=O)Nc1nc(-c2ccc(S(=O)(=O)N3CCOCC3)cc2)cs1	7.9
27	Cc1ccc(C(=O)OCC(=O)NC(C)c2ccccc2)s1 (stereo unspecified)	19

Other structures
cpd	UCH37 inh	FGF22 binding	Ecoli rRNA inh	Ecoli rRNA inh OD600	Ecoli rRNA inh RFP	ALR H2O2 inh	HNF4A DNA FP	Beta2AR agonist	Ecoli growth	canonical_smiles
31	4.8	i	-14	-28	-0.5	nt	11	6	0.65	COc1ccccc1CNC(=O)COC(=O)c1c[nH]c2ccccc12
32	0.7	i	6	4	2.7	-3	-2.3	12	0.71	CC1(C)Cc2c(sc3ncnc(NN)c23)CO1
33	2.0	nt	8	19	-1.1	1	1.5	4	0.69	COc1ccc(C(=O)NCCS(=O)(=O)NCc2cccnc2)cc1
34	13	i	-2	2	-3.3	-3	0.5	2	0.71	COc1ccc(C2/C(=C(/O)c3ccccc3)C(=O)C(=O)N2C)c(OC)c1 (stereo unspecified)
35	2.4	nt	nt	nt	nt	17	1.8	61*	0.66	CC1=C(C)CC(C(=O)NNC(=O)c2csc3c2CCC(C(C)(C)C)C3)C(C(=O)O)C1 (stereo unspecified)
36	2.2	nt	nt	nt	nt	5	0.8	2	0.71	Cc1noc(C)c1CN1C(=O)NC(Cc2ccccc2)(Cc2ccccc2)C1=O
37	3.8	i	-9	7	11	nt	-0.9	-9	0.67	CCN(CC)CCN(Cc1cc2ccc(C)cc2[nH]c1=O)C(=S)Nc1ccccc1C(=O)OC
38	2.7	i	5	10	0.6	-12	-0.3	-4	0.79	CC(C)CCNC(=O)Cn1c(=O)oc2cc(S(=O)(=O)N3CC(C)CC(C)C3)ccc21 (stereo unspecified)
39	nt	i	9	16	1.3	nt	2.4	nt	nt	Cc1ccccc1-c1nc(NCCN(C)C)nc2ccsc12
40	0.3	i	-4	-3	-5.8	2	2.1	-3	0.65	O=C(Nc1cc(C2CC2)nn1-c1ccccc1)c1ccc(F)cc1
41	3.6	i	3	9	0.2	21	-1.0	2	0.69	CN(CC(=O)Nc1ccc(N2CCOCC2)cc1)CC(=O)Nc1ccccc1[N+](=O)[O-]
42	13	nt	nt	nt	nt	65	-1.1	0	0.7	Cc1c(N=Cc2ccco2)c(=O)n(-c2ccccc2)n1C
43	-1.1	i	9	15	-0.5	-5	2.9	10	0.71	CC(Sc1nnc(-c2ccco2)o1)C(=O)Nc1ccc(OC(F)F)cc1 (stereo unspecified)
44	0.0	i	8	9	0.5	-4	0.9	-1	0.71	COc1cc(Cl)c(C)cc1NC(=O)COC(=O)c1cc(SC)ccc1Cl
45	2.4	nt	-4	-14	-2.8	16	-5.7	-1	0.68	O=C(COC(=O)c1ccccc1C(=O)N1CCN(c2ccccc2)CC1)Nc1ccccc1
46	2.9	i	3	1	3.6	-4	4.7	-4	0.66	O=C(CNC(=O)c1ccc(-c2ccccc2)cc1)Nc1cccc(CO)c1
47	1.7	i	21	15	0.0	-22	-2.7	-11	nt	C[C@@H]1CC[C@]2(O[C@@H](CCO)C[C@H](O)[C@H]2O)O1
48	5.8	nt	nt	nt	nt	14	nt	nt	0.72	CC(=O)C(Sc1ncnc2c1nnn2-c1ccc(F)cc1)C(=O)N(C)C (stereo unspecified)
49	-0.1	nt	4	0	1.0	-8	-2.3	9	0.65	COCC(=O)Nc1c(C(=O)Nc2cccc(OC)c2)oc2ccccc12
50	3.8	nt	nt	nt	nt	-2	0.5	-3	0.71	CCOC(=O)c1sc(NC(=O)CSc2ccccn2)c(C#N)c1C
51	0.5	i	-5	-9	-1.5	nt	-0.1	8	0.7	Cc1ccc(NC(=O)COC(=O)c2oc3ccccc3c2C)cc1S(=O)(=O)N1CCOCC1
52	3.2	i	-20	-23	-18	-3	-3.4	7	0.67	Cc1ccc(CNS(=O)(=O)c2ccc3c(c2)OCCO3)cc1
53	5.2	i	-8	-29	-0.5	-9	0.1	4	0.68	CCCC1=Nc2cc(C(=O)N3CCC(C(=O)OCC)CC3)ccc2Sc2ccccc21
54	4.9	nt	2	1	-0.4	-11	1.6	-4	0.63	CC(C)(C)C(=O)Cn1ncc(N2CCOCC2)c(Br)c1=O
55	1.0	i	8	9	1.9	-4	1.4	-12	0.64	Cc1ccc(C)c(S(=O)(=O)N2CCNCC2)c1
56	4.4	i	-6	-15	-1.0	-4	-0.1	8	0.67	O=C(COC(=O)C1CCCO1)Nc1nc(-c2ccc(F)cc2)cs1 (stereo unspecified)
57	1.8	i	-8	-14	-4.5	-9	-2.0	-3	0.67	O=C(COc1ccc(S(=O)(=O)N2CCCC2)cc1)Nc1ccc(F)cc1

These rows are one share of the data; rates above refer to the full screens.
